RGS16-Gao: modulators of RGS16 binding to Galphao, primary screen, biochemical, human proteins, multiplexed bead flow cytometry | bead-based flow cytometry RGS16-Galphao binding, fluorescence; actives lie on both sides | binding response (% of control), % at 10 µM | 0.38% of 220,000 active | AID 1441, 2008;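 active = below 25% or above 175%, edge rows of some plates excepted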;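 note: Galphao activated by GDP with aluminum fluoride before binding; 100% = wells without compound and 0% = beads without RGS; some results beyond the cut were filed as inactive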
GALR2 ag: GALR2 receptor agonists, primary screen, cell-based. GALR2-expressing cells, agonist activation read-out. activation, %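 (tested at 5 µM)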. 0.48% of 140,000 active;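 active = above mean plus 3 SD of all compounds, about 5% in these data, not always enough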;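 note: 0% = vehicle buffer wells and 100% = reference agonist at full effect; tested in CHO reporter cells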
HSV augment: enhancers of HSV replication in host cells, fold increase, host cell viability. HSV replication augmentation in cells. 0.005% of 220,000 active. AID 1956, 2009. maximum fold increase;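 active = peak rise of 1.5-fold or more in the series; inconclusive = self-fluorescent or not available for retest; tested in PC3 cells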;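 note: first round at 10 µM; read as green reporter fluorescence; hits show the peak of a series up to 25 µM; 1 = signal of infected wells without compound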
Insulin prom inh: inhibitors of insulin promoter-driven GFP, primary screen, imaging, TRM-6 cells (human fetal islet line), eGFP reporter, cell count. reporter expression induced with tamoxifen. 0.9% of 130,000 active. inhibition, % at 2 µM. AID 1273, 2008;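 active = inhibition above the mean plus 3 SD, with well images judged a real hit on visual review, cut at about 60% in these data, passing the limit was not always enough; inconclusive = inhibition over the cutoff but images rejected on review; inactive = inhibition not above the cutoff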
PKD1 kinase inh: inhibitors of human PKD1 kinase, biochemical, fluorescence polarization | Serine/threonine-protein kinase D1 (Homo sapiens), Q15139 | PKD1 kinase fluorescence polarization assay | inhibition, %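 (about 10 µM by stock and volumes)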 | 0.056% of 200,000 active;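 active = inhibition of 50% or more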;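 note: controls were vehicle for no effect and a reference inhibitor for full effect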
Target sequence (Q15139 whole entry, looked up): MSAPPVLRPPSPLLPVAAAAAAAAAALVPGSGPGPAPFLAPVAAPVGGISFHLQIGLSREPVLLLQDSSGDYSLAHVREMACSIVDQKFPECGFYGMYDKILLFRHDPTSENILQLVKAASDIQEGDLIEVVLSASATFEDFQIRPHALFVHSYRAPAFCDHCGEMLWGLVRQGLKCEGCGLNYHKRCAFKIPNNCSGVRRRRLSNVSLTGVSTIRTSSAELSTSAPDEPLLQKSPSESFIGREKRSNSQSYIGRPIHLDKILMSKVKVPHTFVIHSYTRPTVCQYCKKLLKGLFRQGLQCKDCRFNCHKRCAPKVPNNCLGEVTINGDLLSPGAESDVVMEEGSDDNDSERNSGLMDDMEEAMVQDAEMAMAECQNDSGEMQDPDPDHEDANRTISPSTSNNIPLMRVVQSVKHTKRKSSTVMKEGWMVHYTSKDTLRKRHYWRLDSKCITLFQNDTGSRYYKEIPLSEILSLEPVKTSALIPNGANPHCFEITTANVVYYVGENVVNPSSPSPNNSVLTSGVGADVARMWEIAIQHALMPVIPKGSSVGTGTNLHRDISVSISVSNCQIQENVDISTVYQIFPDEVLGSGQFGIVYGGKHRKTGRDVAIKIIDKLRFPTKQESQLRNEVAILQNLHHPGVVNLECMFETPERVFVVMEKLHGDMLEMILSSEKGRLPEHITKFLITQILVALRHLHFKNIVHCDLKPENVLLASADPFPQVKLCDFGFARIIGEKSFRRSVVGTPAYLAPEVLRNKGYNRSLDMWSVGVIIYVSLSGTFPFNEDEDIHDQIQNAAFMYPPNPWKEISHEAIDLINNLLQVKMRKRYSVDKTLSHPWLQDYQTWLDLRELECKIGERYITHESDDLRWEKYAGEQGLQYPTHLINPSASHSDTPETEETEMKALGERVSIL
Insulin prom inh cell count: further read-out of Insulin prom inh, marked with its call; normalized cell count, %; measured here: cell count, toxicity; reference of the scale not given here;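 cells exposed to compound for 48 h; stained nuclei by imaging scaled within each plate; lower means fewer cells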
HSV augment primary fold: also measured in HSV augment; calls as there; fold increase; compound at 10 µM; measured here: primary screen fold increase 10 uM; tested in PC3 cells;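 GFP signal in the first replicate; 1 = infected wells without compound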
Starred values were filed as active, the others as inactive; i = inactive; ? = inconclusive; · = no result given; & = joins results of further samples. This is a subset; rates above refer to the full screens.

Molecule | HSV augment primary fold | PKD1 kinase inh | Insulin prom inh cell count | GALR2 ag | HSV augment | RGS16-Gao | Insulin prom inh
CC(=O)c1c(C)n(C2CCCCC2)c2ccc(O)cc12 | 0.78 | -1 | 138 | · | i | 109 | 56
O=c1[nH]c(=S)n(C2CC2)c(O)c1/C=N/N1CCOCC1 | 0.95 | -9 | 96 | -2.0 | i | 95 | 20
COC(=O)[C@@]1(Cc2ccc(F)cc2)[C@H]2c3cc(C(=O)N(C)C)[nH]c3C[C@H]2CN1C(=O)c1ccccc1 | 1.2 | 4 | 59 | -3.0 | i | 48 | -236
Cn1cnc([N+](=O)[O-])c1Sc1ccc([N+](=O)[O-])cc1 | 0.94 | 0 | 42 | · | i | 105 | 14
O=C(c1ccccc1)C1CCCN(Cc2nc(-c3cnccn3)no2)C1 (stereo not given) | 0.9 | 2 | · | · | i | 98 | ·
COc1cccc(N2CCN(Cc3cccc(Cl)c3)CC2)c1 | 0.96 | -11 | · | -3.7 | i | 105 | ·
Cc1ccc(-n2c(O)c(/C=C/C=Nc3ccccc3)c(=O)[nH]c2=O)cc1 | · | -17 | 54 | 0.0 | ? | 151 | -8
CC1=CC(=Cc2sc3ccccc3[n+]2C)C=C(C)O1 | · | -9 | 89 | · | · | 100 | -456
C=CCOC(=O)COc1cc(C)cc2oc(=O)c3c(c12)CCC3 | 0.96 | -11 | 173 | 0.0 | i | 100 | 16
Cc1cccc(CN2CCCC(C(=O)c3ccc(C(F)(F)F)cc3)C2)n1 (stereo not given) | 1.1 | -3 | 166 | · | i | 103 | -26
O=C(CN1CCCC1)Nc1ccc(Cl)cc1C(=O)c1ccccc1 | 0.89 | 2 | · | · | i | 94 | ·
O=[N+]([O-])c1cccc(C2N3CCCN23)c1 (stereo not given) | 0.88 | 2 | 107 | · | i | 104 | -6
CCCc1nc2ccc(Br)cc2c(=O)n1-c1ccc([N+](=O)[O-])c(C(F)(F)F)c1 | 0.75 | 11 | 138 | -3.0 | i | 101 | 9
N=C1C(c2ccccc2)=C(O)CN1Cc1ccco1 | 0.91 | -4 | · | -1.6 | i | 103 | ·
Fc1ccc2c(c1)nnn2C1CCN(Cc2ccccc2)CC1 | 0.93 | -1 | · | -0.7 | i | 115 | ·
CCN(CC)P(=O)(/C=C(\Cl)c1ccccc1)/C=C(\Cl)c1ccccc1 | 0.92 | 0 | · | · | i | 102 | ·
CC(=O)OC1(Cc2ccccc2)CN2CCC1c1ccccc12 (stereo not given) | 0.85 | -4 | 110 | -2.7 | i | 98 | 17
CCc1ccc(NP(=O)(Oc2ccccc2F)Oc2ccccc2F)cc1 | 0.94 | 5 | · | · | i | 96 | ·
O=C(c1ccc(CNS(=O)(=O)c2ccccc2)cc1)N1CCC2(CC1)OCCO2 | · | -6 | · | -2.8 | · | 136 | ·
CN(C)/C=C/C(=O)C(Cl)(Cl)Cl | 1.2 | 6 | · | · | i | 104 | ·
CCN1C(=O)C(=C2C=C(C)OC(C)=C2)C(=O)N(CC)C1=S | 1.1 | 3 | 124 | · | i | 96 | 0
Cc1[nH]c2c(Cl)cccc2c1CCN | 0.66 | 2 | 95 | -3.4 | i | · | 40
CCCCCCCSc1cc(OC)c(CCN(C)C)cc1OC | 0.61 | 2 | 97 | 0.7 | i | 152 | 32
Cc1cc(C)c(Cn2c(C(=O)O)c(C=O)c3ccccc32)c(C)c1 | 0.98 | -3 | 87 | · | i | 98 | 44
Clc1ccc(CSC(Cn2ccnc2)c2ccc(Cl)cc2Cl)cc1 (stereo not given) | 0.71 | -6 | 154 | -0.2 | i | 102 | -62
CC(C)(C)N1C(=O)NC(=O)/C(=C\c2ccc3c(c2)CCN3CCCCl)C1=O | 0.98 | · | · | · | i | 103 | ·
Cc1ccc(N2C(=O)NC(=O)/C(=C/c3cnn(-c4ccc(C)cc4)c3)C2=O)cc1 | 0.95 | 9 | 97 | -1.4 | i | 94 | -13
Cc1ccccc1-n1c(O)c(C(c2ccncc2)c2c(O)n(-c3ccccc3C)c(=O)[nH]c2=O)c(=O)[nH]c1=O | 0.91&1.1 | · | · | · | i | 98&92 | ·

Gathered by group, the compounds so far with nitrogen in an aromatic ring (15)
Molecule | HSV augment primary fold | PKD1 kinase inh | Insulin prom inh cell count | GALR2 ag | HSV augment | RGS16-Gao | Insulin prom inh
CC(=O)c1c(C)n(C2CCCCC2)c2ccc(O)cc12 | 0.78 | -1 | 138 | · | i | 109 | 56
O=c1[nH]c(=S)n(C2CC2)c(O)c1/C=N/N1CCOCC1 | 0.95 | -9 | 96 | -2.0 | i | 95 | 20
COC(=O)[C@@]1(Cc2ccc(F)cc2)[C@H]2c3cc(C(=O)N(C)C)[nH]c3C[C@H]2CN1C(=O)c1ccccc1 | 1.2 | 4 | 59 | -3.0 | i | 48 | -236
Cn1cnc([N+](=O)[O-])c1Sc1ccc([N+](=O)[O-])cc1 | 0.94 | 0 | 42 | · | i | 105 | 14
O=C(c1ccccc1)C1CCCN(Cc2nc(-c3cnccn3)no2)C1 (stereo not given) | 0.9 | 2 | · | · | i | 98 | ·
Cc1ccc(-n2c(O)c(/C=C/C=Nc3ccccc3)c(=O)[nH]c2=O)cc1 | · | -17 | 54 | 0.0 | ? | 151 | -8
CC1=CC(=Cc2sc3ccccc3[n+]2C)C=C(C)O1 | · | -9 | 89 | · | · | 100 | -456
Cc1cccc(CN2CCCC(C(=O)c3ccc(C(F)(F)F)cc3)C2)n1 (stereo not given) | 1.1 | -3 | 166 | · | i | 103 | -26
CCCc1nc2ccc(Br)cc2c(=O)n1-c1ccc([N+](=O)[O-])c(C(F)(F)F)c1 | 0.75 | 11 | 138 | -3.0 | i | 101 | 9
Fc1ccc2c(c1)nnn2C1CCN(Cc2ccccc2)CC1 | 0.93 | -1 | · | -0.7 | i | 115 | ·
Cc1[nH]c2c(Cl)cccc2c1CCN | 0.66 | 2 | 95 | -3.4 | i | · | 40
Cc1cc(C)c(Cn2c(C(=O)O)c(C=O)c3ccccc32)c(C)c1 | 0.98 | -3 | 87 | · | i | 98 | 44
Clc1ccc(CSC(Cn2ccnc2)c2ccc(Cl)cc2Cl)cc1 (stereo not given) | 0.71 | -6 | 154 | -0.2 | i | 102 | -62
Cc1ccc(N2C(=O)NC(=O)/C(=C/c3cnn(-c4ccc(C)cc4)c3)C2=O)cc1 | 0.95 | 9 | 97 | -1.4 | i | 94 | -13
Cc1ccccc1-n1c(O)c(C(c2ccncc2)c2c(O)n(-c3ccccc3C)c(=O)[nH]c2=O)c(=O)[nH]c1=O | 0.91&1.1 | · | · | · | i | 98&92 | ·

Bioassay records deposited in PubChem by several laboratories.
